miR-21 FLuc – raises the signal of a miR-21 reporter; HeLa miR-21 FLuc reporter, luciferase, 48 h; Potency, µM (top dose mostly 38.3 µM), without a hit: at the highest dose reporter change, positive = more light; 340,000 tested, under 10 active; AID 2288; active = well fitted rising curve with a large enough effect; inconclusive = small, poorly fitted or top-dose-only effect; inactive = no such curve, though single readings can be large or run the other way;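 also: % of control where 0% means no effect; miR-21 action dims this reporter so a rising signal means less miR-21 action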
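HeLa miR-21-FLuc reporter line, endogenous miR-21; 2000 cells/well in DMEM/10% FBS; compound titration up to ~40uM final, 48 h, 37 degree Celsius; luciferase detection reagent, 15 min lysis, CCD luminescence.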
Rango-impB inh – prevents formation of the Rango-importin beta complex; Q14974; Rango CFP/YFP FRET sensor + importin beta, 45 min; Potency, µM (highest dose often 92.2 µM), inactives show at the highest dose inhibition of complex formation; 340,000 tested, 0.031% active; AID 540263; active = rising FRET ratio curve, often small or poorly fitted; inconclusive = mostly compound fluorescence or quenching in the first reads; inactive = flat curves in all reads;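 also: potency is read from the fitted curve at half-maximal effect; 0% = DMSO wells and 100% = buffer wells lacking importin beta; nearly all actives have a fitted effect of over 15% in size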
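Inhibition scored from the CFP 486 nm/YFP 530 nm FRET ratio 45 min after adding 0.125 microM importin beta to 50 nM Rango biosensor preincubated 5 min with compound (room temperature, PBS with DTT, Tween-20, BSA). No-importin wells as positive control.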
Rango release inh – inhibitors of RanGTP-induced Rango-importin beta complex dissociation. O95149+P62826. Biochemical FRET Rango-importin beta, RanGTP-induced dissociation. Potency, µM (doses to about 46.1 µM), for inactives: top-dose activity change, negative = inhibition. 340,000 tested, 0.071% active; active means falling FRET ratio curve, often poorly fitted, with flat reads before Ran was added; inconclusive means other falling curves, or compound fluorescence or quenching; inactive means flat or rising ratio curve;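 also: potency is read from the fitted curve at half-maximal effect; % of control where 0% means no effect; nearly all actives have a fitted effect of over 45% in size; -100% = wells without RanGTP and RCC1; the record marks most hits as doubtful in a second field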
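Rango FRET biosensor (snurportin-1 IBB flanked by N-terminal EYFP and C-terminal CFP10) at 0.1 uM, with 0.25 uM importin beta in PBS, 1mM DTT, 0.02% Tween-20, 0.1% BSA. 0.6 uM Ran, 2mM GTP and 0.2 uM RCC1 were then added for 45 min at room temperature. Inhibition read as loss of FRET rise.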
GLA inh pH 4.5 – blocks human alpha-galactosidase A at pH 4.5; purified enzyme, 4-MU-alpha-Gal fluorescence, pH 4.5; activity change, negative = inhibition, % at 105 µM; 230,000 tested, under 10 active; AID 1467; inconclusive = small, poorly fitted or top-dose-only inhibition, or a rising curve; inactive = flat fitted curve, though single readings scatter; no compound was filed as active;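 also: 0% = full activity with enzyme and -100% = basal without enzyme; dose as in the result columns while the protocol names 77 µM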
Target sequence (P06280 whole entry, looked up): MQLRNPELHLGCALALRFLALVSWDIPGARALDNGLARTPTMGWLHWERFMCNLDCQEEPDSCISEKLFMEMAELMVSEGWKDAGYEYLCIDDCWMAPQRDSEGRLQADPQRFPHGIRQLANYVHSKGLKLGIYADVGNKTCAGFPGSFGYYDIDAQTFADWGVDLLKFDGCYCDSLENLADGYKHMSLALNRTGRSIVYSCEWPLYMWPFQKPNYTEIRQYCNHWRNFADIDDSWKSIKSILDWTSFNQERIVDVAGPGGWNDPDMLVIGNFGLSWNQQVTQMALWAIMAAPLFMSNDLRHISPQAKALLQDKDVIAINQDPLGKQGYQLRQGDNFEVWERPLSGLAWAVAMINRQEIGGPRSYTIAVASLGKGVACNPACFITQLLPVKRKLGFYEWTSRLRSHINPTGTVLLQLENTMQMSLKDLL
* hit, by the source's call; ? = inconclusive; nt = not tested or not shown; & = joins results of further samples. These rows are one share of the data; rates above refer to the full screens.

miR-21 FLuc | Rango-impB inh | Rango release inh | GLA inh pH 4.5 | Structure
16% | 0.1% | -3% | nt | CC1CCN(C(=O)c2ccc(CS(=O)(=O)Cc3ccccc3)cc2)CC1
2% | -2.9% | 9% | 2 | Cc1cc(OCC(=O)Nc2ccc(S(=O)(=O)N3CCN(C)CC3)cc2)ccc1Cl
-2% | -2.1% | -5% | 4 | O=C(CNC(=O)c1ccc(Br)o1)OCC(=O)c1cccc([N+](=O)[O-])c1
5% | -6.4% | -26% | 10 | CC(C)C1N=C2c3ccccc3N=C(SCC(=O)NCCc3ccc(S(N)(=O)=O)cc3)N2C1=O (stereo not given)
1% | 0.2% | -3% | nt | COc1cc(-c2nnc(SCC(=O)NC3CCCC3)n2C)cc(OC)c1O
-1% | 1.9% | 9% | nt | CN1CCN(CC(O)Cn2c3ccccc3c3ccccc32)CC1 (stereo not given)
-29% | -2.8% | 1% | -3 | O=C(c1cc2ccccn2n1)N1CCN(Cc2ccccc2)CC1
-1% | 2.7% | 1% | -3 | CCOC(=O)c1c(NC(=O)CN2CCCCC2)sc(CN(C)C)c1-c1ccccc1
0% | 2.2% | 16% | nt | CN(C)N1C(N)=C(C#N)C(c2ccccc2F)C2=C1CC(C)(C)CC2=O (stereo not given)
-1% | -0.2% | 8% | 1 | Cc1ccc(NC(=O)C2CC(Cl)=CCC2C(=O)O)c([N+](=O)[O-])c1 (stereo not given)
-4% | -5.2% | 0% | 1 | Cc1cccc(C)c1NC(=O)C(c1ccccc1)N1CCC1=O (stereo not given)
17% | 3.2% | 2% | -8 | COc1ccc(COC(=O)NC2CCN(S(=O)(=O)c3ccc(OC)cc3)CC2)cc1
-36% | 3.4% | 3% | 9 | COc1ccccc1C(=O)Nc1ccc(-c2nnn(CC(=O)N3CCOCC3)n2)cc1
3% | 5.8% | 10% | 7 | CNS(=O)(=O)c1cc(C(=O)O)ccc1OC
9% | -1.0% | -2% | nt | Cc1ccc2occ(/C=N/NC(=O)c3ccccc3Br)c(=O)c2c1
2% | ? | -15% | -3&-3 | COC(=O)[C@@H]1C[C@H]2CC[C@H](O)C[C@H]2N1Cc1ccccc1OC(=O)c1cccs1
-55% | ? | 1% | -4 | COc1nc(-c2ccccc2)ccc1-c1noc(-c2ccco2)n1
nt | -1.5% | -5% | nt | COc1ccccc1N1CCN(C(=O)c2ccc(-c3nc4ccccc4s3)o2)CC1
-61% | 2.1% | 8% | -4 | Cc1ccc(NC(=O)CSCc2ccc(F)cc2)cc1
-6% | ? | -15% | -2 | O=C1N/C(=C\c2ccc(N3CCOCC3)c(F)c2)C(=O)N1Cc1ccccc1
-1% | ? | ? | nt | CC(=O)c1ccc2c(c1)c(C#N)c1ccccc1[n+]2[O-]
2% | -1.2% | 7% | nt | CCCCNC(=O)c1cn(CC(C)C)c(=O)c2c1c1ccccc1n2C
0% | -0.4% | -11% | -1 | Cc1ccc(NC(=S)N2CCc3[nH]c4ccccc4c3C2)cc1
nt | -0.3% | 1% | nt | Cc1ccc(S(=O)(=O)Nc2ccc(F)c(S(=O)(=O)N3CCOCC3)c2)cc1
nt | 0.1% | -6% | nt | CNc1nc(NC)nc(NNC(=O)c2ccccc2)n1
-1% | 0.0% | 2% | nt | COc1ccc(C(C)C)cc1S(=O)(=O)NCC1CCCO1 (stereo not given)
1% | -0.7% | -6% | nt | O=C1c2ccccc2C(=O)N1CCCc1cn(C[C@H]2CC[C@@H]([C@@H]3CC[C@H](Cn4cc(CCCN5C(=O)c6ccccc6C5=O)nn4)O3)O2)nn1
nt | 0.3% | 0% | nt | COc1ccc(NC(=O)CCOc2ccc(C)cc2)cc1S(=O)(=O)N1CCCCC1
nt | ? | -18% | nt | COc1ccc(-c2c(-c3ccc(OC)nc3)c3ccccc3n2C)cc1
1% | 3.1% | 4% | 1 | Cc1cc(C)n(-c2ccc(F)cc2)c(=O)c1C#N
nt | -4.1% | -4% | nt | CCOc1ccc(CCNC(=O)CN2C(=O)NC3(CCCCC3C)C2=O)cc1OCC (stereo not given)
-1% | 0.3% | -15% | -3 | COc1ccc(C(=O)NC2CCN(S(=O)(=O)Cc3ccccc3)CC2)c(OC)c1
nt | 0.9% | 10% | nt | CCCCn1c(N)c(N(CCOC)C(=O)COC(=O)COc2cc(C)ccc2Cl)c(=O)[nH]c1=O
nt | 3.1% | 22% | nt | COCCN(C(=O)COC(=O)CCCOc1ccccc1)c1c(N)n(Cc2ccccc2)c(=O)[nH]c1=O
0% | 0.1% | 14% | -2 | O=C(CSc1nc2ccccc2nc1SCC(=O)N1CCCCC1)N1CCCCC1
-2% | -2.2% | -1% | nt | CCN1CCN(CCC(=O)Nc2cc(OC)cc(OC)c2)CC1
0% | 0.4% | 19% | -1 | CCN(CC)C(=S)Nc1c(C)n(C)n(-c2ccccc2)c1=O
-7% | -1.6% | -2% | 7 | CCOc1ccc(C(C)=O)cc1Cn1nc(C(=O)O)c2ccccc2c1=O
-26% | -5.7% | 9% | -12 | COc1ccc(/C=C/C(=O)Nc2ccc(C34CC5CC(CC(O)(C5)C3)C4)cc2)cc1OC
5% | -4.2% | 5% | nt | CN1C(=O)C(O)(C2CCCCCC2=O)c2ccccc21 (stereo not given)
nt | -1.6% | 6% | nt | C[C@H](O)[C@@H]1C(=O)N2CCc3ccc(-c4ccccc4)cc3[C@@H]2C[C@@H]1N(C)C(=O)NC1CCCCC1
nt | 6.8% | 1% | nt | O=C(CNc1cccc(F)c1)Nc1cccc(S(=O)(=O)N2CCCCC2)c1
-2% | -3.7% | 1% | nt | O=C(NCc1ccccc1)C(c1ccccc1)N(C(=O)c1csnn1)c1ccc(F)cc1 (stereo not given)
-9% | nt | nt | 3 | CC(C)CCOc1ccc(C(=O)CCNC(C)C(=O)O)cc1 (stereo not given)
11% | -1.4% | 17% | -12 | CN(CC(O)COC(c1ccccc1)c1ccccc1)C1CCCCC1 (stereo not given)
-3% | 1.7% | 3% | 0 | CN(C(=O)COc1cc(=O)n(C)c2ccccc12)c1ccc(Br)cc1
1% | 0.2% | -11% | 3 | CC(C)C(=O)Nc1cccc(NC(=O)c2cccc([N+](=O)[O-])c2)c1
-2% | -0.5% | -1% | -1 | CC(C)(C)C1CCc2onc(C(=O)O)c2C1 (stereo not given)
-1% | -4.2% | 2% | nt | Cc1cc(=O)oc2cc(OCC(O)Cn3ccnc3)ccc12 (stereo not given)
nt | -0.2% | -1% | nt | O=C(CCCN=C1NS(=O)(=O)c2ccccc21)OCc1ccccc1
nt | 3.3% | 13% | nt | CC(C)C(NS(=O)(=O)c1ccccc1F)C(=O)OCC(=O)NCc1ccco1 (stereo not given)
1% | -0.8% | -4% | 9 | COc1cccc(NC(=O)c2cc(-c3cccnc3)nc3c(Cl)cccc23)c1
-5% | -3.0% | -10% | 1 | COc1ccccc1NC(=O)Cn1nnc2sc3c(c2c1=O)CC(C)(C)OC3
2% | -3.3% | -12% | 6 | Cc1cc(C(=O)CN2C(=O)C(=O)N(C)C2=O)c(C)n1-c1cccc(S(=O)(=O)N2CCOCC2)c1
-11% | ? | -14% | 2 | Cc1ccc2nc(SCC(=O)Nc3cccc(S(N)(=O)=O)c3)[nH]c2c1
-2% | 0.4% | 4% | -1 | COc1ccc(CCNC(=O)CSc2nnnn2-c2ccc(OC)c(OC)c2)cc1OC

Further results follow:
miR-21 FLuc | Rango-impB inh | Rango release inh | GLA inh pH 4.5 | Structure
-6% | -5.0% | 13% | 6 | CCOc1ccc(CCN2C(=O)C3C4C=CC(C4)C3C2=O)cc1OCC (stereo not given)
-3% | -1.7% | -5% | 10 | Cc1ccc(S(=O)(=O)N2CCCC2C(=O)O)s1 (stereo not given)
-4% | -4.0% | -1% | 0 | Cc1c(Br)c([N+](=O)[O-])nn1C(C)C(=O)NCc1ccco1 (stereo not given)
-1% | 1.1% | -9% | nt | Cc1ccc(CNS(=O)(=O)c2ccc(F)c(F)c2)n1C
nt | 2.7% | -6% | nt | CN(CCc1ccccc1)C(=O)c1ccc(NC(=O)Cc2ccc(NC(=O)C3CCCN(S(=O)(=O)c4cccc([N+](=O)[O-])c4)C3)cc2)cc1 (stereo not given)
nt | 0.2% | 4% | nt | COCCNC(=O)c1cccc(S(=O)(=O)N2CC3(C)CC2CC(C)(C)C3)c1 (stereo not given)
-28% | 0.4% | -7% | -1 | O=C(Nc1ccn(Cc2ccccc2)n1)c1ccc(F)cc1
-2% | -0.6% | 0% | nt | CC1CN(C(=O)COC(=O)c2cc(=O)c3ccccc3o2)CC(C)O1 (stereo not given)
-7% | 0.4% | -22% | nt | Cc1ccc(C(C)NC(=O)C2CCCC2)cc1C (stereo not given)
0% | -4.1% | 4% | nt | COc1ccccc1NC(=O)CSc1nnc(COc2ccccc2C)o1
-37% | -2.8% | 15% | -4 | O=C(CN1C(=O)c2cccnc2C1=O)c1ccccc1
-6% | -0.8% | 8% | 4 | Cc1ccc(-c2[nH]nc3c2C(c2ccc(OC(=O)N4CCOCC4)cc2)C(C#N)=C(N)O3)cc1 (stereo not given)
-2% | -2.9% | -3% | 0 | CC(C)Cc1cc(CN2CCC(CO)(Cc3cccc(C(F)(F)F)c3)CC2)[nH]n1
-8% | 0.0% | 22% | 5 | CCC(C)NC(=O)c1c(-c2cc(Cl)c(OC)c(Cl)c2)noc1C (stereo not given)
-60% | 0.2% | 11% | -7 | O=C(Nc1ccc2c(c1)CCC2)C1COc2ccccc2O1 (stereo not given)
0% | -2.0% | -2% | nt | CCN(CC)Cc1c(C(=O)N/N=C/c2ccncc2)nnn1-c1nonc1N
nt | -0.3% | 8% | nt | Cc1c(N(C)S(=O)(=O)c2ccc(Cl)c(C(=O)NCC(C)(C)N3CCOCC3)c2)c(=O)n(-c2ccccc2)n1C
10% | -3.8% | 4% | 1 | O=[N+]([O-])c1ccc(F)cc1Oc1nc(-c2cccnc2)nc2ccccc12
nt | 3.6% | 0% | nt | O=C(c1ccc(S(=O)(=O)NCc2ccco2)cc1)N1CCN(c2ccccc2)CC1
-2% | 6.1% | 5% | -1 | O=c1cnnc(Nc2ccc(F)cc2)[nH]1
-1% | 0.5% | 12% | 2 | O=S(=O)(c1ccc2ccccc2c1)N(CC(O)CN1CCOCC1)c1ccccc1 (stereo not given)
0% | 1.8% | 3% | nt | COc1ccccc1N(CC(=O)NCc1ccc2c(c1)OCO2)C(=O)CCC(=O)Nc1nccs1
-16% | ? | -1% | 3 | COc1ccc(NC(C)C(=O)N/N=C/c2ccccc2OCc2ccc(Br)cc2)cc1 (stereo not given)
nt | 0.3% | -5% | nt | N#Cc1nc(NCC(F)F)nc(Nc2cc(F)cc(F)c2)n1

Rewritten with two lines to a compound: 3 of the compounds above
Fields – miR-21 FLuc	Rango-impB inh	Rango release inh	GLA inh pH 4.5
N#Cc1nc(NCC(F)F)nc(Nc2cc(F)cc(F)c2)n1
 : nt	0.3%	-5%	nt
Cc1c(N(C)S(=O)(=O)c2ccc(Cl)c(C(=O)NCC(C)(C)N3CCOCC3)c2)c(=O)n(-c2ccccc2)n1C
 : nt	-0.3%	8%	nt
O=c1cnnc(Nc2ccc(F)cc2)[nH]1
 : -2%	6.1%	5%	-1

Further records
miR-21 FLuc | Rango-impB inh | Rango release inh | GLA inh pH 4.5 | Structure
nt | 2.8% | 0% | nt | Cc1cccc(N2CC(C(=O)Nc3ccccc3N3CCCC3)CC2=O)c1C (stereo not given)
27% | 3.1% | -4% | nt | COc1cccc(/C=C2\SC(=S)N(CCC(=O)N3CCCCC3CCO)C2=O)c1 (stereo not given)
-19% | -1.9% | -3% | 10 | COc1cc(/C=N/NC(=O)c2ccc(CN3c4cccc5cccc(c45)S3(=O)=O)cc2)cc(OC)c1O
-3% | -1.1% | 3% | 2 | Cc1cc(C)n(-c2ccc(C(=O)N3CC(C)OC(C)C3)cc2)n1 (stereo not given)
-5% | 1.0% | 0% | -11 | CC[C@@H](Nc1ncnc2c1oc1ccccc12)C(=O)O
nt | 0.2% | -12% | nt | COc1cc(OC)cc(-c2c(-c3ccc(F)cc3)c3cc(-c4ccc5cc[nH]c5c4)ccc3n2C)c1

Screening results deposited in PubChem by National Center for Advancing Translational Sciences (NCATS).
